Screening results: PubChem BioAssay, National Center for Advancing Translational Sciences (NCATS)
SmPrx2 inh – inhibitors of Schistosoma mansoni peroxiredoxin 2; Potency, µM; S. mansoni Prx2 activity coupled to TGR/GSH (TGR is thioredoxin glutathione reductase), NADPH fluorescence loss, qHTS; some inactives read as strong as hits; AID 448; actives 0.07% (n = 65,000); active means full or partial inhibition curve with a strong effect at the top dose; inconclusive means weaker partial or single-point curve; inactive means no accepted curve; note: series up to 57 µM; many of its hits are not listed in these tables
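Purified S. mansoni TGR and Prx2 in pH 7.4 phosphate buffer with EDTA and Tween-20 were preincubated with compounds for 15 min. Further NADPH/GSH was added, then a 2.5 mM H2O2 aliquot initiated turnover, followed kinetically by NADPH fluorescence.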
LT uptake inh – anthrax lethal toxin internalization inhibition; AID 912; Cells, anthrax lethal toxin internalization, FRET ratio (460/530); Potency, µM (series often up to 40 µM), for inactives: at the highest dose activity change, negative = inhibition, usual class: inhibitors; actives 0.67% (n = 70,000); active = well fitted falling ratio curve with the 530 nm signal flat; inconclusive = other ratio curves, or a change in one channel alone; inactive = flat curves in the ratio and both channels; the % refers to the ratio; note: % is set by controls: 0 for no effect and ±100 for the full control effect; nearly all actives have a fitted effect of over 50% in size; tested in ME-180 cells; beta-lactamase reporter
The depositor's hits bear a star; ? = inconclusive; . = not tested or not shown; & = joins results of further samples; [ ] = remark or other dose. Potency is the fitted concentration of half-maximal effect. A portion of the library; rates above refer to the full screens.

Structure	SmPrx2 inh	LT uptake inh
COc1ccc(C2C(C(=O)NCc3ccccc3)=C(C)Nc3ncnn32)cc1OC (centres undefined)	>57	-14.4%
COC(=O)c1ccc(=O)n(-c2ccc(OC)cc2)c1	.	-2.4%
CCN(CC)CCNC(=O)c1cc2c(=O)n(C)c3ccccc3c2n1C	>57	?
O=C(C1CCC(Cn2c(=S)[nH]c3ccccc3c2=O)CC1)N1CCN(c2ccccc2)CC1 (centres undefined)	>57	-14.8%
COc1ccccc1N1CCN(S(=O)(=O)c2ccc3c4c(cccc24)C(=O)N3C)CC1	>57	0.3%
CCCc1[nH]nc2c1C(c1ccc(OC(=O)c3ccco3)cc1)C(C#N)=C(N)O2 (centres undefined)	>57	-17.1%
COc1cc2c(cc1OC)C(C(=O)N1CCCC1)C(c1ccccc1F)N(C)C2=O (centres undefined)	>57	0.2%
COc1ccc(-n2nnc3c(=O)n(Cc4ccccc4C)cnc32)cc1	>57	-4.3%
COc1ccc(OCC(=O)N(C)Cc2ccccc2)cc1	.	6.1%
CCN1CCN(C(CNS(=O)(=O)c2ccc(OC)cc2)c2cccnc2)CC1 (centres undefined)	>57	10.5%
COc1ccc(-c2c3c(=O)n(C)c(=O)n(C)c3cn2NC(C)=O)cc1	>57	-2.4%
CCc1cccc(NC(=O)C2CCCN(S(=O)(=O)c3c(C)[nH]c(=O)[nH]c3=O)C2)c1 (centres undefined)	>57	8.7%
OC12CCCCC1C(c1ccc3c(c1)OCO3)N(Cc1cccc(F)c1)CC2 (centres undefined)	>57	?
CS(=O)(=O)N1CCC2(CCN(C(=O)Nc3cccc(C#N)c3)CC2)CC1	>57	?
COCCN1Cc2cccc(C(=O)NCc3cccnc3)c2C1=O	>57	7.1%
NC(=O)c1c(C(F)(F)F)cc(-c2ccccc2)nc1NCCO	>57	?
O=C(Nc1cccc(Cl)c1)c1ccc2c(=O)n3c(nc2c1)CCCCC3	>57	12.6µM*
c1cnc2ccc(C(c3nnnn3C3CCCC3)N3CCN(c4nc5ccccc5s4)CC3)cc2c1 (centres undefined)	>57	?
CCOC(=O)C1=C(C)NC(=O)NC1c1cc2c(cc1Br)OCO2 (centres undefined)	>57	-11.1%
Cc1ccc(-c2nc(CN(C)C)cc(CN(C)C)c2O)cc1	>57	-6.7%
CC1CCN(S(=O)(=O)c2ccc(S(=O)(=O)N3CCN4CCCC4C3)cc2)CC1 (centres undefined)	>57	-0.9%
O=S1(=O)N=C(N2CCN(Cc3ccc4c(c3)OCO4)CC2)c2ccccc21	>57	-11.9%
COc1ccccc1-c1cc2nc(C)c(CCC(=O)NCc3ccco3)c(C)n2n1	>57	-8.4%
FC(F)(F)c1cccc(OCCOCCn2cncn2)c1	>57	4.8%
Cn1c(=O)cc(OCC(=O)N2CCC(N3CCCCC3)CC2)c2ccccc21	>57	-2.0%
Cc1ccnc(NS(=O)(=O)c2ccc(NC(=O)C3CCCCC3C(=O)O)cc2)n1 (centres undefined)	>57	2.6%
CCOc1ccccc1C1CC(c2ccc(Cl)cc2)Nc2nc(N)nn21 (centres undefined)	>57	-12.5%
C(=N\c1nc2ccccc2n1Cc1ccccc1)/c1cccs1	>57	26.8%
O=C(c1ccc(CS(=O)(=O)c2c(Cl)cccc2Cl)o1)N1CCCC1	>57	8.8%
O=C1C2C(c3ccccc3)C=CC(c3ccccc3)C2C(=O)N1CCO (centres undefined)	>57	0.6%
CCCCOCCCNC(=O)N[C@@H](CCSC)C(=O)OC	>57	.
O=C1C2C3C=CC(C3)C2C(=O)N1c1ccc(-c2nc3ccccc3o2)cc1 (centres undefined)	.	-5.6%
CCCN1Cc2cccc(C(=O)Nc3ccc(OC)c(OC)c3)c2C1=O	>57	-1.7%
Cc1occc1C(=O)NC(C)C(C)(C)C (centres undefined)	>57	-4.3%
CCSc1nnc(NC(=O)c2ccc(Br)s2)s1	>57	.
CCOC(=O)N1CCN(C(=O)c2cnn3ccccc23)CC1	>57	4.6%
CO[C@@H]1COC(=O)[C@H](C)NC(=O)[C@@H](C)COC(=O)[C@H](C)NC(=O)C/C=C\[C@H]1C	.	-2.1%[8 µM]
CCc1ccc2oc(=O)cc(CN3CCC(C)CC3)c2c1	>57	-11.1%
COc1ccc(OC)c(N(CC(=O)Nc2ccc3c(c2)OCO3)S(=O)(=O)c2ccccc2)c1	.	-22.7%
CCOC(=O)c1c(C2COc3ccccc3O2)csc1N (centres undefined)	>57	?
CN1CCN(Cc2nc3cccc4c3c([n+]2[O-])-c2ccccc2-4)CC1	>57	-6.1%[8 µM]
CC(C)(C)c1nc(CN2CCOCC2)ccc1O	.	-18.3%
CC(=O)c1ccc(N2CCN(C(=O)c3ccco3)C(C)C2)c(F)c1 (centres undefined)	>57	9.2%
COC(=O)Cc1nnc(NC(=O)c2ccccc2)s1	>57	0.6%
CC[C@H](C)N(C)C(=O)c1cc2ccccc2c(-c2ccccc2Cl)n1	>57&>57	-1.1%&-0.8%
COc1cccc(C(=O)Nc2c(C(N)=O)oc3ccccc23)c1	>57	?
Cn1c(CNC(=O)Nc2cccc(Cl)c2)nnc1SCc1ccccc1	>57	-11.8%
CCC(=O)Nc1cccc(NC(=O)c2cccnc2)c1	>57	-3.4%
COc1ncc2nc(-c3ccccc3)c(=O)n(C)c2n1	>57	-9.8%
CCc1nnc(NC(=O)CN2CCN(C3CCCCC3)CC2)s1	>57	-8.1%

(listing goes on)
Structure	SmPrx2 inh	LT uptake inh
O=C1NC(=O)[C@]2(Cc3ccccc3N3CCN(c4ccccc4)CC32)C(=O)N1Cc1ccccc1 (some centres undefined)	>57	.
O=C(CN1C(=O)c2ccccc2S1(=O)=O)Nc1ccc(S(=O)(=O)N2CCCCC2)cc1	>57	5.7%
Cc1ccc(-c2noc(CCC(=O)Nc3ccc4c(c3)OCO4)n2)cc1	>57	9.4%
CCOc1cc(-c2ccc(N)c(OCC)c2)ccc1N	>57	?
O=C(Cn1nnc(-c2cccs2)n1)OC1CCCCC1	>57	-13.8%
C[C@H](CCC(=O)O)[C@H]1CC[C@H]2[C@@H]3CC[C@@H]4C[C@H](O)CC[C@]4(C)[C@H]3C[C@H](O)[C@]12C	.	-3.7%
O=C1CC(Cc2ccccc2)C(=O)N1CCc1ccc2c(c1)OCO2 (centres undefined)	>57	-21.8%
COC(=O)NC(c1ccccc1)[C@@]1(C(=O)OC)CCCC1=O (some centres undefined)	.	-11.2%[8 µM]
COc1ccccc1CNc1nc(-c2cccnc2)nc2ccccc12	>57	?
O=C(O)CCCCn1ccc(=O)[nH]c1=O	>57	-7.1%[8 µM]
Cc1cc(N2CCN(C(=O)c3ccco3)CC2)n2nc(C)nc2n1	>57	3.1%
O=C(CSc1nc2c(cnn2-c2ccccc2)c(=O)[nH]1)c1ccc(Cl)cc1	>57	2.1%
Cc1cc(NC(=O)CSc2nc3c(c(=O)n2-c2ccc(Cl)cc2)SCC3)no1	>57	-0.6%
Cc1ccc(NCc2nnc(SCC(=O)NCCc3ccccc3)n2C)cc1	>57	9.4%
CCOC(=O)N1CCC(NC(=O)c2ccc3c(c2)ncn3C2CCCC2)CC1	>57	-4.5%
C/C(N)=C(/C#N)C(=O)COC(=O)CC1CCCC1	>57	12.9%
O=C(CCN1CCN(CCO)CC1)Nc1ccc(F)c(F)c1	>57	?
CC(C)(CC(=O)Nc1ccccc1)C(=O)O	>57	0.2%[8 µM]
O=C(NC1CCCC1)C(c1ccc(Cl)cc1)N1CCOCC1 (centres undefined)	>57	7.0%
O=C(O)COc1ccc(Oc2ccccc2)cc1	>57	-12.6%
CCOC(=O)CN(C(=O)Cn1nnc2ccccc21)C(C(=O)NCCOC)c1ccccc1 (centres undefined)	>57	17.0%
O=C(Cn1nc(-c2ccccc2)ccc1=O)N1CCOCC1	>57	6.5%
COc1ccccc1C1=Nn2c(nnc2C2CCCCC2)SC1	>57	7.7%
COCCn1nnnc1C(C(C)C)N1CCC(Cc2ccccc2)CC1 (centres undefined)	>57	-7.4%
CC(C)=N[C@H](C(=O)O)C(C)(C)S	>57	-12.2%[8 µM]
CC(C)CCNC(=O)Cc1c(C(=O)O)[nH]c2ccc(Cl)cc12	>57	-4.7%
COc1cc(C2=NOC(C(=O)Nc3ccc(C)cc3)C2)cc(OC)c1OC (centres undefined)	>57	1.1%
CCS(=O)(=O)NCc1cn2ccsc2n1	>57	-0.6%
Cc1cccc(N2CC(C(=O)Nc3ccc4c(c3)OCO4)CC2=O)c1C (centres undefined)	>57	7.9%
Cc1nn(-c2ccccc2)c2sc(C(=O)OCc3nnc(-c4ccccc4)o3)cc12	>57	0.6%
O=C(c1cc(-c2ccc3c(c2)OCO3)on1)N1CCN(c2ccccc2)CC1	>57	?
CCC1CCCCN1C(=O)c1nn2cccnc2c1Cl (centres undefined)	>57	7.5%
O=C(NC12CC3CC(CC(C3)C1)C2)c1cc2nc(-c3ccco3)cc(C(F)(F)F)n2n1	>57	-18.7%
COc1cc2c(cc1OC)-c1cc(N3CCCCCC3)nc(=O)n1CC2	>57	.
Cc1cc(NS(=O)(=O)c2ccc(NC(=O)Nc3ccccc3)cc2)no1	.	-11.4%
Clc1ccc(CSc2nnc(-c3ccncc3)o2)c(Cl)c1	>57	4.1%
O=C(O)c1ccc(CSc2n[nH]c(-c3ccco3)n2)cc1	>57	8.3%
COc1ccc(-c2cc(C(F)(F)F)n3nc(C(=O)N4CCCC4)cc3n2)cc1	>57	8.7%
Cc1sc2nc(SCC(=O)N3CCCCC3)[nH]c(=O)c2c1C	>57	9.4%
Cc1cccc(-n2ncc3c(N4CCCC4)ncnc32)c1	>57	-19.2%
Cn1c(=O)n(CCN2CCOCC2)c(=O)c2c1nc1n2CCN1c1ccccc1	>57	.
O=C(CSC1CCCCC1)N1CCN(c2ccccc2)CC1	>57	-12.5%
O=C(NC1CCCC1)c1ccc(S(=O)(=O)N2CCCC2)cc1	>57	22.0%
CCOc1ccc(-c2noc(-c3ccncc3)n2)cc1OCC	>57	13.9%
Nn1c(SCC(=O)NCCC2=CCCCC2)nnc1C1CCCCC1	>57	9.8%
COc1cc(C(c2nnnn2C(C)(C)C)N2CCN(C)CC2)cc(OC)c1OC (centres undefined)	>57	-3.5%
CC(=O)Nc1ccc(S(=O)(=O)N2CCN(CCC#N)CC2)cc1	>57	0.9%
Clc1ccc(C2=Nn3c(nnc3-c3n[nH]c4c3CCC4)SC2)cc1Cl	>57	-20.4%
CC(C)c1cc(Nc2cccc(O)c2)cc(C(C)C)c1O	?	-3.6%
O=C(NCC(=O)N(c1ccccc1F)C(C(=O)NCC1CCCO1)c1ccccc1)c1ccco1 (centres undefined)	>57	-18.7%

More structures follow.
Structure	SmPrx2 inh	LT uptake inh
CC1CN(c2nc3c(c(=O)[nH]c(=O)n3C)n2Cc2ccccc2F)CC(C)O1 (centres undefined)	>57	2.1%
CC(=O)c1cc(OC(=O)N2CCOCC2)ccc1OC(=O)N1CCOCC1	>57	1.3%
COc1ccc(C(=O)c2c[nH]c3ccccc23)cc1	.	-30.6%
Cc1ccc(-c2nc(C#N)c(NCc3cccc4c3OCO4)o2)cc1	>57	.
COCCCNC(=O)CSc1ccc(Cl)cc1	.	0.0%
COCCOc1ccc(C(F)(F)F)cc1NC(=O)COC(=O)c1c(C)noc1C	>57	-8.5%
COc1ccccc1NC(=O)C1=C(C)Nc2nc(-c3cccs3)nn2C1c1cccnc1 (centres undefined)	>57	1.0%
COCCn1c(SCC(=O)Nc2sc(C)c(C)c2C#N)nnc1-c1ccc(OC)cc1	>57	-17.3%
COCCOC(=O)c1[nH]c2c(c1C)C(=O)CC(c1ccc(F)cc1)C2 (centres undefined)	>57	?
CNC(=O)Nc1ccccc1NC(=O)NC	>57	-3.5%
CCS(=O)(=O)NCC(c1cccnc1)N1CCN(c2ccccc2OC)CC1 (centres undefined)	>57	3.0%
COc1ccc(CN2CCCCCC2)c(C)c1C	>57	-0.2%
COc1ccc(S(=O)(=O)C(C#N)c2nc3ccccc3nc2N2CCC(C)CC2)cc1 (centres undefined)	>57	-7.6%
c1ccc(CSc2nnc(-c3ccco3)c(-c3ccco3)n2)cc1	.	-5.9%
Cn1cccc1C(=O)N1CCC2(CCCN(c3ccccn3)C2)CC1	>57	?
COc1ccc2[nH]cc(CCNc3nc(-c4c(C)noc4C)nc4ccccc34)c2c1	>57	?
CCOc1ccc(-c2nnn(CCC(=O)O)n2)cc1OC	>57	10.4%

Full records as entered above. Screens in order: SmPrx2 inh, LT uptake inh
O=C(Cn1nc(-c2ccccc2)ccc1=O)N1CCOCC1 reads >57, 6.5%
Cc1ccnc(NS(=O)(=O)c2ccc(NC(=O)C3CCCCC3C(=O)O)cc2)n1 (centres undefined) reads >57, 2.6%
O=S1(=O)N=C(N2CCN(Cc3ccc4c(c3)OCO4)CC2)c2ccccc21 reads >57, -11.9%
COc1cc2c(cc1OC)-c1cc(N3CCCCCC3)nc(=O)n1CC2 reads >57, .
